# ugtP null kill: compounds lethal to S. aureus RN4220 ugtP deletion mutant; growth inhibition, % (concentration not given with the values); AID 1259309; 0.54% of 330,000 active; OD600 growth, 16 h; some inactives read as strong as hits;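 active means z-score under -3 and OD600 up to 0.15 on both plates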;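 further: plate controls were untreated wells for no effect and antibiotic for full effect; wells of about 80 µL received 100 nL stock; the first replicate is given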
# Bead autofluor: flagged as autofluorescent in microsphere protease counterscreen; compound autofluorescence counterscreen, microsphere flow cytometry; active compounds read high; fluorescence intensity (no concentration beside the values); 3.1% of 360,000 active;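 active means at least 3 SD above the mean of all compounds, about 16000 in these data; inconclusive means too few beads counted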;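 further: 100 nL of 1 mM stock went into each well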
# RN4220 kill: S. aureus RN4220 growth inhibition | OD600, 16 h | 0.33% of 330,000 active | inhibition, % (concentration not given with the values);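 active means z-score of -3 or lower and OD600 up to 0.18 on both plates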;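 further: plate controls were untreated cells for no effect and reference antibiotic for full effect; stock transfer was 100 nL into about 80 µL; one replicate is shown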
# PrP UTR inh: inhibition of PrP 5' UTR reporter expression; cell-based PrP 5' UTR mRNA reporter, plate reader; inhibition, % (test concentration not listed); 0.35% of 340,000 active; AID 488862;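 active means every replicate at 50% or more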;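 further: 0 = median of the neutral control wells; tested in H4 reporter cells; numbers are from one replicate; inactives centre near -14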
# BJeLR lethal: BJeLR cell viability loss | BJeLR (HRASV12) viability, CellTiter-Glo ATP luminescence, 48 h; reference of the scale not given here | inhibition, % (test concentration not listed) | 0.17% of 300,000 active;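 active means replicate mean above 50%; inconclusive means above 50% but judged a plate artefact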;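 further: 50 nL library stock added to about 25 µL; numbers are from one replicate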
# Mtb hypoxia inh: reduces hypoxia-regulated biosensor signal in M. tuberculosis; fluorescence inhibition, % (concentration not given with the values); M. tuberculosis hypoxia-regulated fluorescent reporter, fluorescence; 0.1% of 300,000 active;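 active means 35 to 45% if threefold the growth effect, above 45% if 1.5-fold the growth effect; inactive means the rest, general growth blockers included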;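 further: wells of about 50 µL received 100 nL stock; 0% = vehicle wells and 100% = reference inhibitor wells; whole bacteria with a GFP reporter of the hypoxia response; strong numbers were not always called active; many hits fall short of the cut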
# Mtb hypoxia inh growth: second read-out of Mtb hypoxia inh, no call of its own (marks repeat the call); growth inhibition, %; measured here: M. tuberculosis growth (absorbance);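 0% = vehicle and 100% = reference antibiotic; read after six days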
# An asterisk follows results filed as active; ? = inconclusive; nt = no result given; & = joins results of further samples. Compounds were not picked by outcome, and some 4% of all compounds hit somewhere here.
SMILES,ugtP null kill,Bead autofluor,RN4220 kill,PrP UTR inh,BJeLR lethal,Mtb hypoxia inh,Mtb hypoxia inh growth
CCCC1(c2ccccc2)NC(=O)N(CC(=O)N2CC(=O)Nc3ccccc32)C1=O (stereo not drawn),-2,2873,-3.2,-3,nt,2,-3
O=C(CSc1nc(=O)n2ccccc2n1)NCc1ccccc1Cl,6,7964,0.8,-7,2,0,0
Cc1ccn2c(=O)c(NC(=O)COc3ccccc3)c(C)nc2c1,5,5618,6.1,-6,-2,0,4
C=CCCC(Cc1ccc(F)cc1)C(=O)OCC(C)NC(=O)C(CC=C)CC(=O)NC(CO)Cc1ccccc1 (stereo not drawn),10&10&4&-9,nt,2.5&0.5&5.0&5.4,nt,nt,16&16&20&5,6&14&9&10
Cc1ccc(C(=O)Nc2ncc(Cc3ccc(SC(F)F)cc3)s2)cc1,-5,11173,1.4,62*,24,14,4
CCn1c(SCC(=O)NCc2ccc(F)cc2)nc2c(c1=O)SC(C)C2 (stereo not drawn),15,5743,2.4,-12,2,6,6
CCNc1nc(NCC)nc(N(C#N)C(C)C)n1,2,4524,5.0,-10,-1,8,-7
CCN1C(=O)CC(C(=O)O)SC1=Nc1ccc(OC)cc1 (stereo not drawn),2,nt,0.1,-19,-1,-2,9
CCOC(=O)/C(=N\Nc1cc(Cl)ccc1Cl)N1CCOCC1,nt,3428,nt,-11,14,nt,nt
COc1cc(C=CC(=O)Nc2nc3ccc(S(=O)(=O)N(C)C)cc3s2)cc(OC)c1OC,3,nt,6.9,nt,nt,-3,-4
Cc1ccc(CCNC(=O)CN(C)S(=O)(=O)c2ccc3c(c2)c(=O)n(C)c(=O)n3C)cc1,13,5920,4.8,2,-2,9,4
Cc1ccc(NC(=O)/C=C\C(=O)NCC(=O)O)cc1C,11,2421,3.0,-27,-1,2,-3
CCc1cccc(C)c1NC(=O)CN(C)Cc1cccc(F)c1,-3,2523,-2.8,-13,-8,-3,2
CCOC(=O)c1c(C)n(C(=O)c2ccco2)c(=O)n1C(=O)c1ccco1,-6,13650,7.3,-22,-8,8,12
O=C(CN1C(=O)CSc2ncccc21)N1CCOCC1,-4,5740,3.9,-23,-2,nt,nt
CNc1ccccc1C(C)(C)c1cc(-c2ccco2)n[nH]1,-12,11382,2.8,-5,7,-3,4
Cc1ccc(C(=O)Nc2ccc(F)cc2)cc1NC1=NC2CS(=O)(=O)CC2S1 (stereo not drawn),6,5007,-0.7,-48,2,5,-2
COc1cc(CNn2c(C)n[nH]c2=S)cc(Cl)c1OCC(=O)NC(C)(C)C,nt,3586,nt,-24,-3,nt,nt
COc1ccc(CCNC(=O)CCc2nc3sc4c(c3c(=O)[nH]2)CCCC4)cc1,-1,6266,5.4,-16,-26,6,6
COc1ccc(CNC2CCCc3ccccc32)c(OC)c1 (stereo not drawn),-3,3691,3.4,-12,9,6,17
Cc1cc(C)n(C2=NS(=O)(=O)c3ccccc32)n1,9,?,4.1,-17,-1,2,-2
CC(=O)OCC(=O)C1(O)CCC2C3CCC4=CC(=O)C=CC4(C)C3C(O)CC21C (stereo not drawn),2,6462,4.3,-26,5,8,0
O=C(NCCN1CCOCC1)C(=O)c1c[nH]c2ccccc12,0,3906,0.5,-13,-9,10,9
Cc1ccccc1C(=O)NC(C(N)=O)P(=O)(OC(C)C)OC(C)C (stereo not drawn),0,4269,-1.0,-26,14,-1,6
Cc1ccc(Nc2nc(Cl)nc(NC(C)(C)C)n2)cc1,-8,3511,0.6,-66,-9,1,2
O=C1OCCC1Sc1nnc(-c2ccc(Cl)cc2Cl)o1 (stereo not drawn),13,5318,5.3,8,5,9,-2
O=C(CSCc1ccccc1Br)NN=Cc1ccccc1C(=O)O,8,nt,4.4,nt,nt,16,11
COc1ccccc1C(=O)N1CCN(c2nc3cc(C)c(C)cc3cc2C#N)CC1,30,3472,10,-4,22,10,8
O=c1cc(-c2ccc(O)c(O)c2)oc2c(C3OC(CO)C(O)C(O)C3O)c(O)cc(O)c12 (stereo not drawn),-2,nt,5.3,nt,nt,6,0
Cc1cc(C)cc(N2C(=O)CC(c3ccccc3)CC2=O)c1,9,2963,9.4,-16,nt,2,1
CC1CCN(C(=O)CN2C(=O)C(=O)c3ccccc32)CC1,2,5217,0.7,-36,2,2,-1
O=C(C1=C[C@@H](c2ccc3c(c2)OCO3)C[C@@H](OCc2ccc(CO)cc2)O1)N1CCOCC1,nt,4123,nt,-11,0,nt,nt
CC(C)C(c1nnnn1Cc1cccs1)N1CCN(C2CCCC2)CC1 (stereo not drawn),-1,4722,0.6,6,8,10,14
COc1ccc2c(c1)CCC1C2CC[C@]2(C)C(C(=O)O)CC12 (stereo partly drawn),4,nt,3.0,nt,nt,9,9
COc1ccccc1C=NNC(=O)c1nnn(-c2nonc2N)c1-c1ccccc1,2,nt,3.0,nt,nt,2,-7
COc1cc(NC(=O)COC(=O)c2ccc(S(=O)(=O)N3CC(C)CC(C)C3)cc2)c(C)cc1[N+](=O)[O-] (stereo not drawn),2,7134,12,-20,10,1,9
O=C(NC1CCCCC1)N1CCN(c2nc(-c3ccccc3)cs2)CC1,-9,4151,15,-10,-11,-4,2
O=C(NC(=S)Nc1cc(C(F)(F)F)ccc1N1CCOCC1)c1ccco1,nt,6188,nt,-9,-3,nt,nt
Cc1ccc(=O)n(C(C(=O)NCc2ccco2)C(=O)c2ccc(F)cc2)c1 (stereo not drawn),0,22339*,2.6,-7,5,5,9
CNC(C)c1cc(OC)ccc1OC (stereo not drawn),7,8908,4.3,-28,-6,7,2
O=c1c2ccccc2nc(SCc2ccc([N+](=O)[O-])cc2)n1-c1ccccc1,-6,8497,5.8,-22,9,0,-2
O=C(NC(c1ccccc1)c1ccccc1)N1CCOCC1,6,4211,2.3,-15,3,13,5
NC(=O)c1ccccc1NC=CC(=O)c1cccs1,-14,nt,2.4,nt,nt,6,-3
CCOC(=O)N1CCc2c(sc(NC(=O)CN3CCOCC3)c2C(=O)Nc2ccccc2)C1,7,4182,2.9,-8,nt,6,-5
COc1cccc(NC(=O)Cn2cc(C(=O)C3CC3)c3ccccc32)c1,0,?,-2.4,-2,0,1,6
COc1cc2[nH]c(=S)n(CCCN3CCOCC3)c(=O)c2cc1OC,17,7123,7.7,-19,0,5,-4
COc1cccc(OCC(=O)Nc2ccccc2-c2ccccc2)c1,15,4616,3.9,0,-4,-2,6
COc1ccccc1N1CCN(Cc2cccc(OC)c2OC)CC1,10,5575,5.2,-30,nt,16,12
Cc1ccc(CCCOC(=O)C[N+]2(C)CCCCC2)cc1,2,3975,7.0,-17,8,-2,-2
Cc1ccc(N2NC(=O)/C(=C/C=C/c3ccco3)C2=O)cc1C,5,2577,7.6,-20,-1,9,4
O=c1sc(Nc2ccccc2)nc2ccccc12,4,4184,7.7,-35,-11,-5,-9
c1ccc(CCc2cn(CC3CCC(C4CCC(Cn5cc(CCc6ccccc6)nn5)O4)O3)nn2)cc1 (stereo not drawn),2,nt,1.9,nt,nt,-1,4
CN(C)CCOC(=O)c1ccc2[nH]c3c(c2c1)CSCC3,4,5056,2.8,-28,-4,11,8
CC(=O)N(CN1C(=O)CCC1=O)c1cccc(Cl)c1,5,2057,1.9,-13,-10,-4,-4
CC1CC(C)(C)NC(=S)N1CC(=O)NCc1ccc(F)cc1 (stereo not drawn),4,4216,11,-20,3,7,14
CN1CCN(Cc2ccc(OCc3ccccc3)cc2)CC1,8,11055,3.3,-45,-5,10,15
CC(=O)Nc1ccc(N(C)C)cc1[N+](=O)[O-],2,3433,0.1,11,0,14,-4
COC(=O)CNC(=O)CSc1nnc2cc(C)c3ccccc3n12,5,5085,6.5,-23,-6,5,3
CCN(CC)CCCn1c2c(c(SCC(=O)Nc3ccc(F)c(F)c3)nc1=O)CCC2,-2,6040,-2.2,-20,3,7,19
COc1ccc(C)cc1C(=O)CCC(=O)NCCc1ccc(S(N)(=O)=O)cc1,-1,2852,0.2,-9,-7,5,1

# Profiles, looked up by structure. Screens in order: ugtP null kill, Bead autofluor, RN4220 kill, PrP UTR inh, BJeLR lethal, Mtb hypoxia inh, Mtb hypoxia inh growth
# Shown for `CC1CC(C)(C)NC(=S)N1CC(=O)NCc1ccc(F)cc1` (stereo not drawn) → 4, 4216, 11, -20, 3, 7, 14
# Shown for `CC(=O)Nc1ccc(N(C)C)cc1[N+](=O)[O-]` → 2, 3433, 0.1, 11, 0, 14, -4
# Shown for `CC(=O)N(CN1C(=O)CCC1=O)c1cccc(Cl)c1` → 5, 2057, 1.9, -13, -10, -4, -4
# Shown for `CCN(CC)CCCn1c2c(c(SCC(=O)Nc3ccc(F)c(F)c3)nc1=O)CCC2` → -2, 6040, -2.2, -20, 3, 7, 19
# Shown for `COC(=O)CNC(=O)CSc1nnc2cc(C)c3ccccc3n12` → 5, 5085, 6.5, -23, -6, 5, 3

# (cont.)
SMILES,ugtP null kill,Bead autofluor,RN4220 kill,PrP UTR inh,BJeLR lethal,Mtb hypoxia inh,Mtb hypoxia inh growth
CC(OC(=O)c1cc(=O)c2ccccc2o1)C(=O)c1ccccc1 (stereo not drawn),1,3682,1.2,-4,nt,5,6
O=P(c1ccccc1)(c1ccccc1)c1nc(-c2ccccc2)oc1NCc1ccccc1,12,3527,1.0,-8,-5,17,12
COc1ccc(N2CCN(C(=O)COc3ccc(Cl)cc3Cl)CC2)cc1,-9,5177,-4.0,0,-2,nt,nt
Cc1cccc(CCNS(=O)(=O)c2ccc3c(c2)n(C)c(=O)c(=O)n3C)c1,15,4041,7.8,4,-3,3,10
COc1cccc(N2CCN(C(=O)CCNS(=O)(=O)c3ccc(F)c(F)c3)CC2)c1,6,6882,-1.3,2,nt,-3,-4
Cn1c(=O)c(C(=O)CCl)c(N)n(Cc2ccccc2)c1=O,2,2920,-0.4,-40,9,22,16
Cn1c(SCC(=O)Nc2cccc(C(=O)O)c2)nnc1-c1cc2cc(Br)ccc2o1,-3,4110,12,-26,-1,16,16
COc1ccc(CNC(=O)c2ccc(SC)cc2OC)cc1,-2,2691,6.3,-9,-7,3,5
COCCN(C(=O)c1ccc(N2C(=O)c3ccccc3C2=O)cc1)c1c(N)n(CC(C)C)c(=O)[nH]c1=O,3,?,4.7,-5,nt,-2,-6
O=C(c1cc(-c2ccc(Cl)cc2)n(-c2ccc(Cl)c(Cl)c2)n1)N1CCOCC1,76,2709,-9.0,-42,0,nt,nt
Cc1ccc(CNC(=O)CC(C)S(=O)(=O)c2cc3c(cc2C)NC(=O)CO3)cc1 (stereo not drawn),3,6350,-5.5,-26,-9,nt,nt
CC=C(C)C(=O)NCCN1C2=NCC(Cc3ccc(O)cc3)N2CC1Cc1ccc(O)cc1 (stereo not drawn),0,nt,5.8,nt,nt,2,0
CCN1CCCC1CN(Cc1cc2ccc(C)cc2[nH]c1=O)C(=S)Nc1ccc(OC)cc1 (stereo not drawn),2,5495,-3.0,-14,21,2,-1
O=C(O)CCS(=O)(=O)c1ccccc1Cl,5,4461,0.0,41,-2,7,2
Cc1cc(C)c(NC(=O)COC(=O)C2CCC2)c(Cl)c1,8,5822,-0.8,-13,3,11,9
O=C(Nc1ccc(Cl)cn1)c1ccc2[nH]c(=O)c(=O)[nH]c2c1,6,5643,-0.3,-21,4,12,-1
CCOc1ncccc1C(=O)NNC(=O)c1ccccc1-n1cccc1,1,4877,6.6,-5,10,-2,0
COc1ccc(CCNC(=O)c2cc(COc3c(C)cccc3C)on2)c(OC)c1,4,5565,0.5,-10,-4,2,9
CC(=O)C[C@H]1c2ccccc2S(=O)(=O)N1C1CCCC1,nt,4081,nt,-17,-11,nt,nt
c1ccc(Cc2nc(-c3ccccn3)no2)cc1,-3,5458,2.3,-36,9,-1,6
Cc1cc(S(=O)(=O)NCC(C)C)ccc1OCC(=O)NCc1ccco1,-2,4303,1.5,-28,0,4,4
Cc1cc(C)n(Cc2ccc(C(=O)NN)o2)n1,3,6246,4.0,-7,-7,8,0
COC(=O)CN1C(=O)C(O)(CC(=O)c2ccc(Cl)cc2)c2ccccc21 (stereo not drawn),-7,5526,4.5,-30,nt,nt,nt
CNc1nc(OCC#N)nc(N2CCCCC2)n1,2,2075,3.6,-1,-4,13,12
CCC1SC2=NCCN2C1(O)c1ccc(Cl)cc1 (stereo not drawn),0,10987,1.3,-23,3,5,5
O=C(COc1cccc(Br)c1)NN=C1CCSC1,8,nt,5.1,nt,nt,13,3
CCOc1ccc(-c2nnn(CC(=O)NCc3ccc4c(c3)OCO4)n2)cc1,7,2537,0.8,2,-3,1,5

# Screens from PubChem.
